# Source: PubChem
# Ran FRET: RanGTP/importin-beta interaction disruptors – biochemical, CFP-Ran/YFP-importin-beta FRET, RCC1, cell-free, primary screen (AID 434961); CFP-Ran/YFP-importin-beta FRET, cell-free; hits give high values; inhibition, %; 0.2% of 7,700 active;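 active = more than half of the replicate wells above 15% inhibition; inconclusive = exactly half above it; inactive = fewer than half above it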;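 also: 0% = DMSO wells and 100% inhibition = RanGDP control wells on each plate; stock of unstated strength diluted about 400-fold; mean of two wells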
# * marks the source's active call; other numbers are inactive results; ? = inconclusive.
Structure | Ran FRET
C[C@@H]1CN([C@@H](C)CO)C(=O)Cc2cc(NC(=O)Cn3cnnn3)ccc2O[C@@H]1CN(C)Cc1ccc(C(F)(F)F)cc1 | 1.3
CNC[C@H]1Oc2ccc(NC(=O)Nc3ccc4c(c3)OCO4)cc2CC(=O)N([C@H](C)CO)C[C@@H]1C | -4.3
C[C@@H]1CN([C@H](C)CO)C(=O)c2cccc(NC(=O)c3ccncc3)c2O[C@H]1CN(C)C(=O)NC1CCCCC1 | -1.4
COc1ccc(S(=O)(=O)N(C)C[C@H]2Oc3ccc(NC(=O)CCCN(C)C)cc3CC(=O)N([C@@H](C)CO)C[C@H]2C)cc1 | -0.6
C[C@@H]1CCCCO[C@H](CN(C)Cc2ccncc2)[C@H](C)CN([C@H](C)CO)C(=O)c2cc(NC(=O)c3ccncc3)ccc2O1 | -0.9
C[C@@H]1CCCCO[C@H](CN(C)S(=O)(=O)c2cccs2)[C@H](C)CN([C@@H](C)CO)C(=O)c2cc(NC(=O)Cc3ccccc3)ccc2O1 | ?
C[C@@H]1CN([C@H](C)CO)C(=O)c2cccc(NC(=O)C3CCOCC3)c2O[C@H]1CN(C)Cc1ccc(C(=O)O)cc1 | 4.0
C[C@H]1CN([C@@H](C)CO)C(=O)c2cc(NC(=O)Cn3cnnn3)ccc2O[C@@H]1CN(C)Cc1ccncc1 | -1.2
C[C@H](CO)N1C[C@H](C)[C@@H](CN(C)Cc2ccc(C(=O)O)cc2)Oc2c(NC(=O)Nc3cccc4ccccc34)cccc2C1=O | -2.9
CNC[C@H]1OCCCC[C@H](C)Oc2ccc(NS(=O)(=O)c3cccs3)cc2C(=O)N([C@@H](C)CO)C[C@H]1C | -0.5

# Remaining list, next part
Structure | Ran FRET
C[C@@H]1CN([C@H](C)CO)C(=O)c2cccc(NC(=O)Nc3cccc4ccccc34)c2O[C@@H]1CN(C)S(=O)(=O)c1cccs1 | 0.8
Cc1noc(C)c1S(=O)(=O)Nc1ccc2c(c1)C(=O)N([C@H](C)CO)C[C@@H](C)[C@@H](CN(C)C(=O)NC1CCCCC1)O2 | 5.2
Cc1noc(C)c1NC(=O)N(C)C[C@H]1Oc2c(NS(=O)(=O)c3cn(C)cn3)cccc2C(=O)N([C@H](C)CO)C[C@@H]1C | -5.0
C[C@H](CO)N1C[C@H](C)[C@@H](CN(C)C)Oc2ccc(NS(C)(=O)=O)cc2C1=O | -3.9
CNC[C@@H]1Oc2ccc(N(C)C)cc2CC(=O)N([C@@H](C)CO)C[C@@H]1C | -4.1
C[C@@H]1CN([C@H](C)CO)C(=O)Cc2cc(NS(=O)(=O)c3ccc(Cl)cc3)ccc2O[C@H]1CN(C)C(=O)NC1CCCCC1 | 10.2
C[C@@H]1CCCCO[C@H](CN(C)C(=O)Cc2ccccc2)[C@H](C)CN([C@H](C)CO)C(=O)c2cc(NC(=O)Nc3ccccc3)ccc2O1 | 0.2
Cc1noc(C)c1NC(=O)N(C)C[C@H]1OCCCC[C@@H](C)Oc2ccc(NS(C)(=O)=O)cc2C(=O)N([C@@H](C)CO)C[C@H]1C | ?
C[C@H]1CN([C@@H](C)CO)C(=O)c2cccc(NS(=O)(=O)c3ccc(Cl)cc3)c2O[C@@H]1CN(C)CC1CC1 | 0.5
CC(C)NC(=O)Nc1ccc2c(c1)C(=O)N([C@H](C)CO)C[C@@H](C)[C@@H](CN(C)S(=O)(=O)c1cccs1)OCCCC[C@H](C)O2 | -2.0

# 3 entries from above, sorted by the number in Ran FRET, falling:
Structure | Ran FRET
C[C@@H]1CN([C@H](C)CO)C(=O)Cc2cc(NS(=O)(=O)c3ccc(Cl)cc3)ccc2O[C@H]1CN(C)C(=O)NC1CCCCC1 | 10.2
C[C@@H]1CCCCO[C@H](CN(C)C(=O)Cc2ccccc2)[C@H](C)CN([C@H](C)CO)C(=O)c2cc(NC(=O)Nc3ccccc3)ccc2O1 | 0.2
CC(C)NC(=O)Nc1ccc2c(c1)C(=O)N([C@H](C)CO)C[C@@H](C)[C@@H](CN(C)S(=O)(=O)c1cccs1)OCCCC[C@H](C)O2 | -2.0

# Next section.
Structure | Ran FRET
C[C@H](CO)N1C[C@H](C)[C@H](CN(C)C(=O)Nc2ccc(C(F)(F)F)cc2)Oc2c(NC(=O)Nc3cccc4ccccc34)cccc2C1=O | -1.6
C[C@@H]1CN([C@H](C)CO)C(=O)c2cc(N(C)C)ccc2O[C@@H](C)CCCCO[C@@H]1CN(C)C(=O)c1ccncc1 | 1.3
C[C@@H]1CN([C@H](C)CO)C(=O)c2cccc(NC(=O)C3CCOCC3)c2O[C@H]1CN(C)Cc1ccccc1 | -2.3
C[C@H]1CN([C@@H](C)CO)C(=O)c2cccc(NC(=O)C3CCOCC3)c2O[C@H]1CN(C)C(=O)Nc1cccc2ccccc12 | -1.8
C[C@H](CO)N1C[C@H](C)[C@H](CN(C)S(=O)(=O)c2ccc(-n3cccn3)cc2)OCc2cn(nn2)CCCC1=O | -0.6
CNC[C@@H]1OCCCC[C@@H](C)Oc2ccc(NS(=O)(=O)c3cccs3)cc2C(=O)N([C@@H](C)CO)C[C@H]1C | -3.7
C[C@@H]1CN([C@@H](C)CO)C(=O)Cc2cc(NC(=O)Cc3ccccc3)ccc2O[C@@H]1CN(C)C(=O)Nc1ccc2c(c1)OCO2 | -2.3
COc1ccc(CN(C)C[C@@H]2Oc3c(NS(C)(=O)=O)cccc3C(=O)N([C@@H](C)CO)C[C@H]2C)cc1 | 4.5
Cc1noc(C)c1S(=O)(=O)Nc1ccc2c(c1)CC(=O)N([C@H](C)CO)C[C@@H](C)[C@H](CN(C)Cc1ccc(-c3ccccc3)cc1)O2 | -1.2
C[C@@H]1CN([C@H](C)CO)C(=O)CCCn2cc(nn2)CO[C@@H]1CN(C)Cc1ccc2c(c1)OCO2 | 6.5

# The results go on.
Structure | Ran FRET
C[C@@H]1CN([C@H](C)CO)C(=O)c2cc(NC(=O)NC3CCCCC3)ccc2O[C@H]1CN(C)C(=O)Nc1cccc2ccccc12 | 0.5
COC(=O)N(C)C[C@H]1OCc2cnnn2CCCC(=O)N([C@H](C)CO)C[C@@H]1C | -1.6
CCCN(C)C[C@H]1OCCCC[C@@H](C)Oc2ccc(NS(=O)(=O)c3ccc(OC)cc3)cc2C(=O)N([C@H](C)CO)C[C@H]1C | 3.3
Cc1noc(C)c1NC(=O)Nc1cccc2c1O[C@H](CN(C)Cc1ccc(C(F)(F)F)cc1)[C@H](C)CN([C@@H](C)CO)C2=O | -0.8
C[C@@H]1CN([C@H](C)CO)C(=O)Cc2cc(NC(=O)CCN3CCOCC3)ccc2O[C@H]1CN(C)C(=O)Nc1cccc2ccccc12 | 0.3
C[C@@H]1CN([C@@H](C)CO)C(=O)c2cc(N(C)C)ccc2O[C@@H](C)CCCCO[C@@H]1CN(C)C(=O)Nc1ccccc1 | -4.7
C[C@@H]1CN([C@@H](C)CO)C(=O)Cc2cc(NC(=O)C3CC3)ccc2O[C@@H]1CN(C)C(=O)Nc1ccccc1 | -0.9
C[C@H]1CN([C@@H](C)CO)C(=O)Cc2cc(NC(=O)NC3CCCCC3)ccc2O[C@H]1CN(C)S(=O)(=O)c1cn(C)cn1 | 2.0
Cc1noc(C)c1S(=O)(=O)Nc1ccc2c(c1)C(=O)N([C@@H](C)CO)C[C@H](C)[C@H](CN(C)C(=O)Nc1ccccc1)OCCCC[C@H](C)O2 | -0.2
Cc1noc(C)c1NC(=O)N(C)C[C@H]1Oc2c(NC(=O)c3nc4ccccc4s3)cccc2C(=O)N([C@@H](C)CO)C[C@H]1C | ?

# The list continues:
Structure | Ran FRET
CC(C)NC(=O)Nc1ccc2c(c1)C(=O)N([C@H](C)CO)C[C@@H](C)[C@@H](CN(C)C(=O)CCCN(C)C)OCCCC[C@@H](C)O2 | -2.5
Cc1ccc(S(=O)(=O)N(C)C[C@@H]2Oc3ccc(NS(C)(=O)=O)cc3C(=O)N([C@@H](C)CO)C[C@H]2C)cc1 | 3.4
C[C@H]1CN([C@@H](C)CO)C(=O)Cc2cc(NC(=O)CCN3CCOCC3)ccc2O[C@@H]1CN(C)C | ?
C[C@@H]1CN([C@H](C)CO)C(=O)c2cc(N(C)C)ccc2O[C@@H](C)CCCCO[C@@H]1CN(C)C(=O)C1CCCCC1 | -2.1
CNC[C@H]1Oc2ccc(NC(=O)CCC(F)(F)F)cc2CC(=O)N([C@@H](C)CO)C[C@@H]1C | 6.2
Cc1noc(C)c1NC(=O)N(C)C[C@@H]1OCCCC[C@@H](C)Oc2ccc(NS(=O)(=O)c3cn(C)cn3)cc2C(=O)N([C@H](C)CO)C[C@@H]1C | -1.1
COc1ccc(S(=O)(=O)Nc2cccc3c2O[C@H](CN(C)CC2CC2)[C@H](C)CN([C@@H](C)CO)C3=O)cc1 | -4.5
C[C@@H]1CN([C@H](C)CO)C(=O)c2cc(NS(=O)(=O)c3cn(C)cn3)ccc2O[C@@H](C)CCCCO[C@@H]1CN(C)C(=O)c1ccccc1 | -1.2
C[C@H](CO)N1C[C@H](C)[C@@H](CN(C)Cc2ccc(C(F)(F)F)cc2)Oc2c(NC(=O)c3cnccn3)cccc2C1=O | -4.9
C[C@H](CO)N1C[C@H](C)[C@H](CN(C)Cc2ccncc2)Oc2ccc(NC(=O)Cn3cnnn3)cc2C1=O | 2.0

# Twelve structures already listed, ordered by length of the SMILES, largest number first.
Structure | Ran FRET
Cc1noc(C)c1NC(=O)N(C)C[C@@H]1OCCCC[C@@H](C)Oc2ccc(NS(=O)(=O)c3cn(C)cn3)cc2C(=O)N([C@H](C)CO)C[C@@H]1C | -1.1
C[C@@H]1CN([C@H](C)CO)C(=O)c2cc(NS(=O)(=O)c3cn(C)cn3)ccc2O[C@@H](C)CCCCO[C@@H]1CN(C)C(=O)c1ccccc1 | -1.2
CC(C)NC(=O)Nc1ccc2c(c1)C(=O)N([C@H](C)CO)C[C@@H](C)[C@@H](CN(C)C(=O)CCCN(C)C)OCCCC[C@@H](C)O2 | -2.5
C[C@@H]1CN([C@H](C)CO)C(=O)Cc2cc(NC(=O)CCN3CCOCC3)ccc2O[C@H]1CN(C)C(=O)Nc1cccc2ccccc12 | 0.3
Cc1noc(C)c1NC(=O)N(C)C[C@H]1Oc2c(NC(=O)c3nc4ccccc4s3)cccc2C(=O)N([C@@H](C)CO)C[C@H]1C | ?
C[C@@H]1CN([C@@H](C)CO)C(=O)c2cc(N(C)C)ccc2O[C@@H](C)CCCCO[C@@H]1CN(C)C(=O)Nc1ccccc1 | -4.7
C[C@@H]1CN([C@H](C)CO)C(=O)c2cc(N(C)C)ccc2O[C@@H](C)CCCCO[C@@H]1CN(C)C(=O)C1CCCCC1 | -2.1
Cc1ccc(S(=O)(=O)N(C)C[C@@H]2Oc3ccc(NS(C)(=O)=O)cc3C(=O)N([C@@H](C)CO)C[C@H]2C)cc1 | 3.4
C[C@@H]1CN([C@@H](C)CO)C(=O)Cc2cc(NC(=O)C3CC3)ccc2O[C@@H]1CN(C)C(=O)Nc1ccccc1 | -0.9
C[C@H](CO)N1C[C@H](C)[C@H](CN(C)Cc2ccncc2)Oc2ccc(NC(=O)Cn3cnnn3)cc2C1=O | 2.0
C[C@H]1CN([C@@H](C)CO)C(=O)Cc2cc(NC(=O)CCN3CCOCC3)ccc2O[C@@H]1CN(C)C | ?
CNC[C@H]1Oc2ccc(NC(=O)CCC(F)(F)F)cc2CC(=O)N([C@@H](C)CO)C[C@@H]1C | 6.2

# Next section:
Structure | Ran FRET
C[C@H]1CCCCO[C@@H](CN(C)C)[C@@H](C)CN([C@@H](C)CO)C(=O)c2cc(NC(=O)C3CCCCC3)ccc2O1 | -1.3
C[C@H]1CCCCO[C@H](CN(C)S(=O)(=O)c2cn(C)cn2)[C@@H](C)CN([C@@H](C)CO)C(=O)c2cc(NC(=O)c3ccccc3)ccc2O1 | -6.3
C[C@@H]1CN([C@H](C)CO)C(=O)c2cccc(NC(=O)Nc3cccc4ccccc34)c2O[C@@H]1CN(C)Cc1ccncc1 | 6.5
C[C@@H]1CCCCO[C@H](CN(C)C(=O)Nc2ccccc2)[C@@H](C)CN([C@H](C)CO)C(=O)c2cc(NS(C)(=O)=O)ccc2O1 | -2.4
C[C@H](CO)N1C[C@H](C)[C@@H](CN(C)C(=O)Nc2cccc3ccccc23)OCCCC[C@H](C)Oc2ccc(N(C)C)cc2C1=O | -1.4
C[C@@H]1CN([C@@H](C)CO)C(=O)Cc2cc(N(C)C)ccc2O[C@@H]1CN(C)S(=O)(=O)c1cccs1 | -1.7
C[C@@H]1CN([C@H](C)CO)C(=O)Cc2cc(NS(C)(=O)=O)ccc2O[C@H]1CN(C)S(=O)(=O)c1cn(C)cn1 | -3.1
C[C@H]1CN([C@@H](C)CO)C(=O)c2cccc(NC(=O)Nc3ccc(C(F)(F)F)cc3)c2O[C@@H]1CN(C)Cc1ccc(C(=O)O)cc1 | 1.8
C[C@H]1CCCCO[C@H](CN(C)C(=O)Nc2ccccc2)[C@@H](C)CN([C@@H](C)CO)C(=O)c2cc(NS(C)(=O)=O)ccc2O1 | 0.7
C[C@@H]1CN([C@H](C)CO)C(=O)Cc2cc(NC(=O)c3ccncc3)ccc2O[C@H]1CN(C)CC1CC1 | 0.2
COc1ccc(NC(=O)Nc2ccc3c(c2)CC(=O)N([C@H](C)CO)C[C@@H](C)[C@@H](CN(C)S(=O)(=O)c2ccc(C)cc2)O3)cc1 | 0.0
C[C@@H]1CCCCO[C@@H](CN(C)C(=O)CCC(F)(F)F)[C@H](C)CN([C@H](C)CO)C(=O)c2cc(NC(=O)c3ccncc3)ccc2O1 | 4.2
C[C@H](CO)N1C[C@H](C)[C@@H](CN(C)CC2CC2)Oc2c(NS(C)(=O)=O)cccc2C1=O | -0.9

# An excerpt; count on the stated rates, not on these rows.
